Assay outcomes from PubChem BioAssay.
StopGo FLuc: FMDV 2A StopGo reporter, firefly signal; HEK cells with a luciferase reporter of 2A StopGo recoding; Potency, µM (top dose mostly 57.5 µM), without a hit: at the top dose signal change, negative = less light; 0.23% of 120,000 active; active = well fitted falling curve with a large enough effect; inconclusive = small, poorly fitted or top-dose-only effect; inactive = no such curve, though single readings can be large or run the other way; further: nearly all actives have a fitted effect of over 60% in size; overnight with compound
2A Renilla: lowers the Renilla signal of an FMDV 2A StopGo reporter | HEK cells with a luciferase reporter of 2A StopGo recoding | Potency, µM (series often up to 57.5 µM), without a hit: at the top dose signal change, negative = less light | 0.32% of 120,000 active; active means well fitted falling curve with a large enough effect; inconclusive means small, poorly fitted or top-dose-only effect; inactive means no such curve, though single readings can be large or run the other way; further: nearly all actives have a fitted effect of over 55% in size; overnight with compound
The depositor's hits bear a star; ? = inconclusive; & = joins results of further samples; [ ] = remark or other dose. On the % scale 0 is the no-effect control and ±100 the full control effect; potency means the concentration at half of the fitted maximal effect. The order is random; any-hit rate near 0.53%.

Order of values – 2A Renilla | StopGo FLuc
> COc1nnc(-c2ccc(N3CCOCC3)c(NC(=O)C3CCCCC3)c2)c2ccccc12
 : 14% | 14%
> Cc1ccc2nc(C(=O)O)[nH]c2c1
 : -2% | 11%
> O=C(COc1ccc(F)cc1)NC1CCCN(c2ncccn2)C1 (stereo not given)
 : -9% | 37%[activator]
> CCCC(=O)N(c1ccc2oc(-c3ccccc3)c(C(=O)OCC)c2c1)S(=O)(=O)c1ccc(C)cc1
 : -3% | 17%
> CCCn1c(SCCc2ccccc2)nc2c1c(=O)[nH]c(=O)n2C
 : 5% | 20%
> Cc1cc(OCC(=O)Nc2ccc(N3CCN(S(C)(=O)=O)CC3)cc2)ccc1Cl
 : -8% | -7%
> COc1ccc(NC(=O)C(C)N(c2ccccc2)S(C)(=O)=O)cc1 (stereo not given)
 : 0%&-11% | 0%&-15%
> Cc1ccc(OCC(O)Cn2c(=N)n(CCN3CCCCC3)c3ccccc32)cc1 (stereo not given)
 : -10% | 15%
> O=C(Nc1ccc(SCc2cccnc2)cc1)c1ccc[n+]([O-])c1
 : ? | ?
> COc1ccc(NC(=O)CN2C(=O)CSc3ccc(S(=O)(=O)N(C)C)cc32)cc1OC
 : 11% | -7%
> CCOc1ccccc1NC(=O)CCc1c(C)nn(-c2ccc(N3CCCCC3)nn2)c1C
 : -15% | 6%
> CCOC(=O)C(NC(=O)c1ccc(F)c(F)c1)C(=O)OCC
 : 6% | -1%
> N#C/C(=C/c1ccc(-c2ccc(Cl)cc2)o1)C(=O)NC1CC1
 : ? | 77%[activator]
> CCc1nnc2c(N3CCN(c4cccc(C(F)(F)F)c4)CC3)nc3ccccc3n12
 : -2% | -2%
> CCCCn1nc(C(=O)Nc2cccc(S(=O)(=O)N3CCCCCC3)c2)c2ccccc2c1=O
 : 45%[activator] | 6%
> CCOc1ccccc1NC(=O)CCS(=O)(=O)c1ccc2c(c1)CCN2C(=O)C1CC1
 : 13% | 9%
> CCCCCCCCCCCCCC[N+](C)(C)C
 : ? | 0%
> COC(=O)c1ccc(COC(=O)CC23CC4CC(CC(Br)(C4)C2)C3)o1
 : 5% | 47%[activator]
> CCOC(=O)c1cc(OC(=O)c2ccc(Cl)cc2)n(-c2ccccc2)n1
 : -10% | 4%
> CN1CCC2(CC1)N1CC3(C)CN2CC(C)(C1)C3=O
 : 6% | 2%
> Cc1ccc(NC(=O)CN(C)C(=O)c2cc3cc(C)ccc3nc2C)cc1
 : -8% | 0%
> CNC(=O)c1ccc(OCc2nc(C(C)C)no2)cc1
 : 28% | 228%[activator]
> Cn1c(COc2ccc(Cl)cc2)n[nH]c1=S
 : 13% | 77%[activator]
> Cn1c(=O)c2c(nc(NCCN)n2Cc2ccc(Br)cc2)n(C)c1=O
 : 5% | 8%
> O=c1n(Cc2ccc(Cl)cc2)nc2n1-c1ccccc1OC2
 : -2% | 29%
> CNc1nc(-c2ccc(NS(C)(=O)=O)cc2)cs1
 : -5% | 150%[activator]
> Cc1cc(OCC(=O)NCc2ccncc2)c2c(C)cc(=O)oc2c1
 : 0% | 14%
> Cc1ccc(C(=O)N2CCN(c3ccccc3F)CC2)cc1NC(=O)c1nsc2ccccc12
 : 27% | 0%
> CC(C)NCC(O)c1ccccc1Cl (stereo not given)
 : -12% | -19%
> O=C1CSC(c2cccc(C(F)(F)F)c2)N1c1cc(Cl)cc(Cl)c1 (stereo not given)
 : ? | ?
> Cc1ccc(C)c(N2CCN(C(=O)C(CC(C)C)NS(=O)(=O)c3ccc4nc(C)sc4c3)CC2)c1 (stereo not given)
 : -5% | -11%
> Cc1cc(C(F)(F)F)c(C#N)c(SCc2cccc3ccccc23)n1
 : 1% | 5%
> COc1ccc(NC(=O)Cn2cc(S(=O)(=O)Cc3ccc(F)cc3)c3ccccc32)cc1OC
 : 0% | 0%
> COc1ccc(NC(=O)/C=C/c2nc3ccccc3o2)c(OC)c1
 : -12% | 23%
> CCOc1ccc(CNC(=O)CC(C)S(=O)(=O)c2ccc3c(c2)NC(=O)CO3)cc1OC (stereo not given)
 : 13% | 21%
> Cc1ccc(OCc2ccc(-c3nc(C#N)c(NCc4ccccc4Cl)o3)o2)cc1
 : 5% | 4%
> N#Cc1c(N)n[nH]c1CCCNc1nc(-c2ccncc2)nc2ccccc12
 : 109%[activator] | 81%[activator]
> COc1ccc(C(=O)Nc2oc3ccccc3c(=O)c2-c2cccc(Cl)c2)cc1OC
 : 47%[activator] | 1%
> COc1ccc(NC(=O)Cc2ccc(NC(=O)N3CCCCc4ccccc43)cc2)c(OC)c1
 : -8% | -13%
> CC(=O)c1ccc(N2CCN(C(=O)c3cc4ccc5cccnc5c4[nH]3)CC2)cc1
 : -19% | 2%
> Cc1ccc(C(=O)NCCSC2CCCC2)s1
 : 65%[activator] | 108%[activator]
> Oc1ccc(/C=C(/Cl)c2ncc(-c3ccc(F)cc3)o2)cc1
 : 1% | 160%[activator]
> CC(C)(C)C(=O)Nc1ccc2oc(-c3ccccc3)cc(=O)c2c1
 : -5% | 185%[activator]
> O=C(Cc1cn2ccsc2n1)Nc1ccc(S(=O)(=O)N2CCCC2)cc1
 : 15% | 10%
> OC1(c2ccc3ccccc3c2)CCN(Cc2ccccc2)C1 (stereo not given)
 : 1% | 86%[activator]
> Cc1nc2cc(F)ccc2cc1C(=O)N1CCCC(C)CC1 (stereo not given)
 : 7% | -7%
> O=C(CSc1nc(=O)n(Cc2cccnc2)c2c1CCC2)N1CCCCC1
 : 11% | -4%
> CCc1ccc(OCC2c3cc(OC)c(OC)cc3CCN2C(=O)Cc2ccc(OC)c(OC)c2)cc1 (stereo not given)
 : 26% | 4%
> Cc1ccc(CN2C(=O)C3(c4ccccc42)N(c2cccc(F)c2)C(=O)CS3(=O)=O)cc1 (stereo not given)
 : 3% | 14%
> CCc1ccc(S(=O)(=O)N2CCN(c3ccc(NCc4ccccc4)nn3)CC2)cc1
 : 24% | 4%

A draw from above in order of length of the SMILES, lowest first.
Order of values – 2A Renilla | StopGo FLuc
> Cc1ccc(C(=O)NCCSC2CCCC2)s1
 : 65%[activator] | 108%[activator]
> OC1(c2ccc3ccccc3c2)CCN(Cc2ccccc2)C1 (stereo not given)
 : 1% | 86%[activator]
> Oc1ccc(/C=C(/Cl)c2ncc(-c3ccc(F)cc3)o2)cc1
 : 1% | 160%[activator]
> O=C(CSc1nc(=O)n(Cc2cccnc2)c2c1CCC2)N1CCCCC1
 : 11% | -4%
> O=C(Cc1cn2ccsc2n1)Nc1ccc(S(=O)(=O)N2CCCC2)cc1
 : 15% | 10%
> Cc1ccc(OCc2ccc(-c3nc(C#N)c(NCc4ccccc4Cl)o3)o2)cc1
 : 5% | 4%
> COc1ccc(C(=O)Nc2oc3ccccc3c(=O)c2-c2cccc(Cl)c2)cc1OC
 : 47%[activator] | 1%
> CC(=O)c1ccc(N2CCN(C(=O)c3cc4ccc5cccnc5c4[nH]3)CC2)cc1
 : -19% | 2%
> COc1ccc(NC(=O)Cc2ccc(NC(=O)N3CCCCc4ccccc43)cc2)c(OC)c1
 : -8% | -13%
> CCOc1ccc(CNC(=O)CC(C)S(=O)(=O)c2ccc3c(c2)NC(=O)CO3)cc1OC (stereo not given)
 : 13% | 21%
> CCc1ccc(OCC2c3cc(OC)c(OC)cc3CCN2C(=O)Cc2ccc(OC)c(OC)c2)cc1 (stereo not given)
 : 26% | 4%
> Cc1ccc(CN2C(=O)C3(c4ccccc42)N(c2cccc(F)c2)C(=O)CS3(=O)=O)cc1 (stereo not given)
 : 3% | 14%

Next part:
Order of values – 2A Renilla | StopGo FLuc
> CCC(=O)N1CCN(c2ccc(NC(=O)c3ccc4ccccc4c3)cc2)CC1
 : -1% | 16%
> COc1ccc(CCNC(=O)c2cccc(N3C(=O)CCS3(=O)=O)c2)cc1OC
 : 5% | 7%
> CCN1CCN(c2nc(Nc3ccc(C)cc3)c3nccnc3n2)CC1
 : -19% | -20%
> CCCn1nc(C(=O)Nc2ccc3nc(SC)sc3c2)c2ccccc2c1=O
 : -8% | 108%[activator]
> CCn1c(C)c(C(=O)NCc2ccccc2)c2cc(OC)ccc21
 : 40%[activator] | 17%
> CCOC(=O)c1c(NC(=O)/C=C/c2ccc(OC)c(OC)c2)sc(C(C)=O)c1C
 : -7% | 4%
> O=C(NC(NC(=O)c1ccccc1F)c1ccc(Cl)c(Cl)c1)c1ccccc1F
 : 58%[activator] | -6%
> CC1=C(c2ccc(C)c(C)c2)S(=O)(=O)N=C1N1CCN(c2cccc(C)c2)C(C)C1 (stereo not given)
 : -14% | -17%
> COC(=O)COc1nc(C)c2c(c1C#N)CCCC2
 : -11% | -11%
> CC1CCC2(CC1)SCC(=O)N2c1cccc(C(F)(F)F)c1 (stereo not given)
 : 8% | 0%
> Cc1ccc(C(=O)C(C)OC(=O)c2c(C)noc2C)cc1 (stereo not given)
 : 31%[activator] | 0%
> COc1ccc(CC(=O)N(Cc2ccsc2)C2CC2)cc1
 : 26% | 10%
> Cc1ccc(S(=O)(=O)N(CC(=O)N2CCN(C(=O)c3ccccc3)CC2)Cc2ccco2)cc1
 : 0% | -3%
> CN(Cc1ccccc1)c1nc(-c2ccc(F)cc2)cc(C(F)(F)F)n1
 : 2% | 8%
> Oc1ccccc1C=NCCOCCN=Cc1ccccc1O
 : 8% | 17%
> CC(Sc1cc(-c2ccccc2)ncn1)C(=O)Nc1ccccc1 (stereo not given)
 : -1% | 0%
> NC(N)=NC(N)=NCCc1ccccc1
 : 7% | 2%
> Nc1cccc(C(=O)/C=C/c2ccc(Cl)cc2Cl)c1
 : 2% | 0%
> N#Cc1nc(-c2ccc(S(=O)(=O)N3CCCC3)cc2)oc1NCCCN1CCOCC1
 : 9% | -4%
> Cc1cc(C)c(NC(=O)Cn2nnc(S(=O)(=O)c3ccc(C)c(C)c3)c2N)c(C)c1
 : -10% | -23%
> COCCN(Cc1cccs1)C(=O)CC1C=CCC1 (stereo not given)
 : 0% | 71%[activator]
> CCC(C)NS(=O)(=O)c1ccc(N2C(=O)CCS2(=O)=O)cc1C (stereo not given)
 : 1% | 4%
> O=C(CCc1ncc(-c2ccccc2F)o1)NCC(O)CN1CCOCC1 (stereo not given)
 : -3% | 10%
> Cc1ccc(C(=O)OC(C)C(=O)Nc2ccc3c(c2)OCO3)cc1O (stereo not given)
 : -19% | 23%
> C=C(C)C1CC=C(C)/C(=N/NC(=O)Nc2ccccc2)C1 (stereo not given)
 : 8%&19% | 45%&53%[activator]
> CCC(=O)N1CCN(c2nc(-c3ccco3)c3c(c2C#N)CC(C)(C)SC3)CC1
 : 0% | -1%
> CCc1cc2c(CN3CCN(c4ccc(F)cc4)CC3)cc(=O)oc2cc1O
 : ? | ?
> COc1ccccc1CNC(=O)C1CCN(C(=O)c2sccc2-n2cccc2)CC1
 : 2% | 28%
> O=C(CSc1nc(=O)n(CCN2CCOCC2)c2c1CCC2)Nc1cccc(Cl)c1
 : 27% | -16%
> Cc1nc2cc(NC(=O)c3cccc(F)c3)ccc2o1
 : 15% | 236%[activator]
> COc1ccc(NC(=O)c2sc3nc4c(c(-c5ccco5)c3c2N)CCCCC4)cc1
 : -3% | 0%
> O=C(CSc1nnc(-c2ccccc2)c(-c2ccccc2)n1)NCCc1ccccc1
 : -6% | -15%
> Cc1ccc(Sc2ccc(N3CCCC(C(=O)Nc4ccc(F)cc4)C3)nn2)cc1 (stereo not given)
 : 25% | 13%
> O=c1c2ccccc2nc(/C=C\c2cccc(Br)c2)n1-c1ccc(O)cc1
 : 1% | 0%
> Cc1ccccc1NS(=O)(=O)c1ccc2[nH]cc(C(=O)NC(C)c3ccccc3)c(=O)c2c1 (stereo not given)
 : 36%[activator] | ?
> CC(NC(=O)c1ccc(F)cc1)c1cccc(NS(C)(=O)=O)c1 (stereo not given)
 : 12% | 19%
> CCOc1ccc(-c2nc3cc(NC(=O)c4ccccc4OC)ccc3o2)cc1
 : 0% | 154%[activator]
> Cc1ccc(C)c(NC(=O)C(C)N(c2ccccc2)S(C)(=O)=O)c1 (stereo not given)
 : 2% | -17%
> Cc1ccc(-c2cc3c(n2-c2ccc(F)cc2)CC(C)(C)CC3=O)cc1
 : 1% | -11%
> Cc1ccc(CN(C)C(=O)NCc2coc(-c3cccs3)n2)cc1
 : 9% | 18%
> CCC(C)NC(=O)CSc1ncc(-c2ccc(Cl)cc2)o1 (stereo not given)
 : -8% | 0%
> CCOc1ccc(Nc2nc(-c3cccc(Cl)c3)c3c(n2)-c2ccccc2OC3)cc1
 : 17% | 10%
> O=c1c2cnc3ncnn3c2ccn1CCc1c[nH]c2ccccc12
 : -3% | 76%[activator]
> CCOc1ccc(NC(=O)CSC2=Nc3ccccc3C3=NC(CC(=O)NCc4ccco4)C(=O)N23)cc1 (stereo not given)
 : -18% | -29%
> COc1cccc(-n2cc(C(=O)NCc3ccccc3OC)c3ccccc3c2=O)c1
 : 53%[activator] | -16%
> Cc1ccc(C(=O)c2oc3ccccc3c2NC(=O)Cc2ccccc2)cc1
 : 2% | 6%
> COc1ccccc1Nc1nc(-c2ccc3c(c2)NC(=O)CO3)cs1
 : ? | -1%
> O=C(Nc1ccc(F)c(Cl)c1)N(Cc1ccc2c(c1)OCO2)C1CCN(Cc2ccccc2)CC1
 : -5% | -21%
> CCS(=O)(=O)c1ncc(Cl)c(C(=O)Nc2c(C(=O)Nc3cccc(C)c3)oc3ccccc23)n1
 : 10% | 42%[activator]
> O=C(c1ccccc1Cl)N1CCN(CCc2ccccn2)CC1
 : -19% | -13%
> CCOC(=O)c1[nH]c2ccccc2c1NC(=O)CC(C)C
 : -26% | -29%
> COc1ccc(N2CCN(C(=O)c3ccc4c(c3)N(Cc3cccc(Cl)c3)C(=O)c3ccccc3S4(=O)=O)CC2)cc1
 : -9% | -21%

Whole records from above. Order of values: 2A Renilla, StopGo FLuc
`Cc1ccc(C)c(NC(=O)C(C)N(c2ccccc2)S(C)(=O)=O)c1` (stereo not given) is listed with 2%, -17%
`CCc1nnc2c(N3CCN(c4cccc(C(F)(F)F)c4)CC3)nc3ccccc3n12` is listed with -2%, -2%
